Rce1 inhib – yeast Ras-converting enzyme inhibition; Q03530; yeast membranes, quenched prenylated peptide cleavage fluorescence; calls only; hit rate 0.27% among 290,000; AID 2563;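 active = fall in fluorescence gain of 50% or more versus controls, with final raw signal at or below 3038400; inconclusive = same 50% fall but final raw signal above 3038400; inactive = fall in fluorescence gain under 50%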;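 also: plate controls were neutral control wells for no effect and wells lacking membranes for full effect; tested at 10 µM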
Target sequence (Q03530 whole entry, looked up): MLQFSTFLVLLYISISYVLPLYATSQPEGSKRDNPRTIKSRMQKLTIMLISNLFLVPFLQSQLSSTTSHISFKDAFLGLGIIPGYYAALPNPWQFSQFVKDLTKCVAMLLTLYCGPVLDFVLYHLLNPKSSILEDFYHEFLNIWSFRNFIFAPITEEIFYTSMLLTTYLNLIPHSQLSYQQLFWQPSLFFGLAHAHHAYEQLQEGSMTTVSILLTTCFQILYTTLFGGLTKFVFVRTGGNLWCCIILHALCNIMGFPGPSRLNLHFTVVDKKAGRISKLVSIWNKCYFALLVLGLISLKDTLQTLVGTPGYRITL
CSC inhib – blocks cancer stem cells. inhibition, % at 7.5 µM. AID 2717. cancer stem cell-like cells viability, luminescence. hit rate 1.1% among 300,000;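 active = mean at 75% or more and at least half the replicates too; inconclusive = mean and replicates disagree; tested in HMLE shEcad cells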;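 also: 0% = median of negative and 100% = median of positive control wells; the first replicate is given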
HIV Env fusion – inhibitors of HIV Env-mediated cell fusion | hit rate 1.1% among 360,000 | inhibition, % at 12.3 µM | AID 651610 | HeLa-JRFL Env/CEM21 cell fusion, luciferase;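 active = mean replicate inhibition score of at least 50 and every replicate individually at or above 50; inconclusive = only one of the two criteria met; inactive = mean below 50 and not all replicates reaching 50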;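 also: 0% = plate neutral controls and 100% = maraviroc near 300 nM; one replicate is shown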
PABP FP inh – PABP-poly(A) binding inhibition. P11940. PABP-poly(A) RNA binding, fluorescence polarization. inhibition, % at 35 µM. hit rate 1% among 290,000;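 active = 50% or more with normal probe brightness, or confirmed in later tests; inconclusive = above 50% with abnormal brightness, or retests that disagree; inactive = below 50% or failed in later tests; about a fifth of its hits are not listed in these tables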;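 also: calls also rest on retests at 20 µM and on dose response follow-up; controls were probe without protein and protein plus probe with vehicle; some compounds called inactive have numbers as strong as hits; many hits fall short of the cut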
Target sequence (P11940 whole entry, looked up): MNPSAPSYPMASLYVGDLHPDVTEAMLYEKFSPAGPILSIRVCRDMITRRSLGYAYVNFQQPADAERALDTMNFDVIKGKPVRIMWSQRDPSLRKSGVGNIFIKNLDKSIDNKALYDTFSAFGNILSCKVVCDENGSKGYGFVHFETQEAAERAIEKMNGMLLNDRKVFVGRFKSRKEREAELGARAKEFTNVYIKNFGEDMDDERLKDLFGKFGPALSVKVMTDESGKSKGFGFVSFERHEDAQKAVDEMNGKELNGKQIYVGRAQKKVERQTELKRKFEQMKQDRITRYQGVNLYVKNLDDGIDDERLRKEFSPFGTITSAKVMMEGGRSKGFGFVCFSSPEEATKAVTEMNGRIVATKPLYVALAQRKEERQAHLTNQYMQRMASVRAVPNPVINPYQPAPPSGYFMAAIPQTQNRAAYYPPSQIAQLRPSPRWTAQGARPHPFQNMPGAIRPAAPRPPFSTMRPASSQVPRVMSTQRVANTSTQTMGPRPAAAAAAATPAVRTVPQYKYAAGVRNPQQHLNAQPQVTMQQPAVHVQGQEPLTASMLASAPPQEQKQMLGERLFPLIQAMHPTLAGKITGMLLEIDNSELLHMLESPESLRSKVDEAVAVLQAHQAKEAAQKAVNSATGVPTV
MT1-MMP act inh – MT1-MMP (human) activation inhibition; P50281; HT1080 RFP-PRO-GFP cells, GFP/RFP ratio fluorescence, overnight; percent of plate control window, DMSO zero; GFP/RFP ratio change, % at 20 µM; hit rate 0.061% among 360,000;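 active = GFP/RFP ratio change of at least 30% with cell ATP level not reduced by more than half and red fluorescence within 50% of control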; also: strong numbers were not always called active
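Compound: 20 µM single dose, 1% DMSO / System: HT1080 RFP-PRO-GFP cells / Controls: DMSO and RFP-L50D-GFP cell wells / Read-out basis: GFP/RFP fluorescence ratio / Schedule: overnight compound exposure at 37 °C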
eIF4H FP inh – inhibitors of RNA binding by human eIF4H. eIF4H fluorescence polarization binding assay. inhibition, % at 35 µM. hit rate 0.94% among 290,000;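 active = 50% or more with normal probe brightness, or confirmed in later tests; inconclusive = above 50% with abnormal brightness, or retests that disagree; inactive = below 50% or failed in later tests; about a fifth of its hits are not listed in these tables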;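 also: calls also rest on retests at 20 µM and on dose response follow-up; 0% = protein and probe with vehicle and 100% = probe without protein; strong numbers were not always called active; many hits fall short of the cut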
UUG fidelity – modulators of start codon recognition fidelity in yeast. AID 602363. activity score, % at 18.7 µM. S. cerevisiae UUG-firefly luciferase reporter, luminescence/redox ratio. hit rate 0.13% among 350,000;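 active = replicate mean at a twofold rise or more, about +100% in these data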;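 also: firefly luciferase made from a UUG start codon reports start codon fidelity; reporter light over untreated wells divided by growth signal over untreated wells; some hits fall short of that in this replicate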
MT1-MMP act inh RFP – recorded beside MT1-MMP act inh, whose call it bears; RFP signal change, %; measured here: RFP expression control read;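 0 = vehicle wells; hits needed this value within 50% of zero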
The depositor's hits bear a star; i = inactive; u = inconclusive; x = not tested or not shown; & = joins results of further samples.

SMILES | Rce1 inhib | CSC inhib | HIV Env fusion | PABP FP inh | MT1-MMP act inh | MT1-MMP act inh RFP | eIF4H FP inh | UUG fidelity
N#CCCn1cc(/C=C2\NC(=S)N(c3ccccc3)C2=O)c(-c2ccc(-c3ccccc3)cc2)n1 | i | -2 | 14 | -4 | -2 | -10 | -3 | 11
COc1cc(OC)cc(C(=O)N[C@H](C(=O)OCC(=O)NC(C)c2ccccc2)C(C)C)c1 (stereo not given in full) | i | 9 | x | 16 | -1 | 2 | 6 | x
CCOC(=O)COc1c(Cl)cc(C2NC(=S)NC(c3ccccc3)=C2C(C)=O)cc1OCC (stereo not given) | i | -2 | x | -7 | 6 | 0 | -4 | 12
CCOc1ccc(S(=O)(=O)N2CCCC(C(=O)N3CCCC3)C2)cc1 (stereo not given) | i | 1 | 8 | 2 | 0 | 1 | -15 | -5
CCOC(=O)c1nnc2ccnn2c1N | i | -8 | x | 1 | 3 | 1 | -6 | -13
COc1cccc(-c2nc(CS(=O)CC(=O)O)c(C)o2)c1 (stereo not given) | i | -2 | -16 | 10 | 0 | 6 | -4 | -16
Nc1cc(=O)[nH]c(SCC(=O)Nc2cc(Cl)ccc2Cl)n1 | i | -17 | -16 | 6 | 9 | -2 | 5 | -19
O=C(Nc1cc2c(cc1Br)OCCO2)c1ccco1 | i | -12 | -196 | 1 | 0 | -7 | 2 | 1
O=C(COC(=O)C1CC(=O)N(Cc2ccco2)C1)Nc1ccccc1[N+](=O)[O-] (stereo not given) | x | x | -1 | x | 3 | -3 | x | -8
COc1ccccc1N(Cc1cc2cccc(C)c2[nH]c1=O)C(=O)C(C)C | i | 5 | x | 2 | -1 | -2 | -5 | -15
CCOC(=O)N1CCN(C2CC(=O)N(c3ccc(Cl)c(Cl)c3)C2=O)CC1 (stereo not given) | i | -8 | x | -6 | 9 | 4 | 1 | 2
COC(=O)c1ccc(NC(=O)C(=O)N2CCN(C(=S)Nc3ccc(OC)cc3)CC2)cc1 | i | 1 | x | -1 | 6 | -4 | 1 | -7
CCCNC(=O)N1CCN(c2nc(C(C)C)c3c(c2C#N)CC(C)(C)OC3)CC1 | i | 4 | -11 | 5 | 7 | 3 | 4 | 8
CC(C)c1ccc(N(CC(=O)NCCSC(C)(C)C)S(C)(=O)=O)cc1 | i | -9 | -13 | 1 | -3 | -4 | -1 | -4
COc1ccc(-c2cc3nnc(-c4ccccc4)nc3s2)cc1 | i | 10 | -36 | 2 | 2 | 6 | -4 | -11
Cc1ccc(/C(O)=C2/C(=O)C(=O)N(CCN3CCOCC3)C2c2ccccn2)cc1 (stereo not given) | i | -4 | -125 | 29 | -1 | 3 | 15 | -5
Nn1c(CN2CCCCC2)nc2ccccc2c1=O | i | 1 | x | 3 | 3 | 3 | 4 | -19
O=C1Nc2ccc(Br)cc2C1(O)c1ccc(F)cc1 (stereo not given) | i | -3 | 8 | 5 | 1 | -1 | -4 | 1
COc1ccc(C(=O)Cc2cc3cccc(OC)c3oc2=O)cc1 | i | 2 | 1 | 15 | -2 | 2 | 2 | -17
Cc1cc(F)ccc1NCc1ccc([N+](=O)[O-])cc1 | i | -11 | 0 | u | 1 | -3 | -7 | x
Cc1ccccc1N1CCN(Cc2nc(Cc3ccccc3)no2)CC1 | i | 35 | -13 | 12 | 3 | 0 | 3 | x
COc1ccc(OC)c(C(c2nnnn2C2CCCC2)N2CCN(c3ccc(F)cc3)CC2)c1 (stereo not given) | i | x | x | -2 | -12 | -9 | -7 | -3
O=S(=O)(NCc1nnnn1-c1ccc(F)cc1)c1ccc(F)cc1 | x | x | -10 | x | 4 | 2 | x | -25
COC(=O)c1c(N2C(=O)CC(Sc3ccccc3C(=O)O)C2=O)sc2c1CCCC2 (stereo not given) | i | -12 | 7 | 0 | -1 | 4 | -6 | x
Cc1ccc(N(C)C2=NC(=O)CS2)cc1Cl | i | -17 | -67 | 6 | 2 | 2 | 0 | -13
O=C(c1ccc2c(c1)OCO2)N1CCN(c2ccc(C(F)(F)F)cn2)CC1 | i | -1 | x | 9 | 9 | -5 | -6 | x
O=C(COC(=O)CNC(=O)c1ccccc1Cl)NC1CCCC1 | x | 6 | 8 | x | 2 | 5 | x | -13
O=C(NCC(=O)N(c1ccc(F)cc1)C(C(=O)NC1CCCCC1)c1cccnc1)c1ccco1 (stereo not given) | i | -36 | 11 | 10 | 5 | 7 | -16 | 0
O=C(Nc1ccccc1C(=O)N1CCOCC1)c1ccc(F)cc1 | i | 20 | x | 2 | -6 | -3 | -1 | -12
CCOC(=O)c1ccc(-n2cccc2/C=C2\NC(=O)NC2=O)cc1 | x | 46 | -19 | x | -8 | -18 | x | -6
CC(OC(=O)CNC(=O)c1ccc(Cl)c([N+](=O)[O-])c1)C(=O)NC1CCCCC1C (stereo not given) | x | x | -2 | x | 4 | 5 | x | 10
CC(=O)c1ccc(S(=O)(=O)Nc2ccc(-n3cnnn3)cc2)cc1 | x | 6 | -6 | x | -3 | 0 | x | -19
CCn1ncc(CNC(=O)CCSc2nc(-c3ccco3)cc(C(F)(F)F)n2)c1C | i | x | x | 1 | 3 | 0 | 0 | 4
CCOc1cc(-c2nc(-c3ccncc3)no2)cc(OCC)c1OCC | i | 11 | x | -7 | -10 | -7 | -11 | -10
O=c1c2ccccc2nc(/C=C/c2cccc(Br)c2)n1CCCO | i | 4 | -9 | 6 | -2 | -11 | -3 | -3
Cc1ccc(S(=O)(=O)NCc2ccc(C(=O)NCCCN3CCC(Cc4ccccc4)CC3)cc2)cc1 | i | 8 | 3 | -6 | -1 | -4 | 5 | x
CC(C(=O)Nc1ccccc1F)N1CCN(S(=O)(=O)c2ccc(C(F)(F)F)cc2)CC1 (stereo not given) | x | x | -9 | x | -5 | -7 | x | -12
CCOC(=O)c1sc(NC(=O)CSc2nncn2C)nc1C | i | -7 | -20 | 3 | -7 | 8 | 4 | x
COc1ccc(-c2nc3n(c2Br)CCC3)cc1 | i | 18 | x | 14 | -3 | -6 | -2 | x
COc1ccc(Cc2c(C(C)(C)C)nc3ccc(C)cn23)c(C)c1 | x | x | -9 | x | 0 | 5 | x | 30

Compound profiles (already shown). Values in the order: Rce1 inhib, CSC inhib, HIV Env fusion, PABP FP inh, MT1-MMP act inh, MT1-MMP act inh RFP, eIF4H FP inh, UUG fidelity
`CC(C(=O)Nc1ccccc1F)N1CCN(S(=O)(=O)c2ccc(C(F)(F)F)cc2)CC1` (stereo not given) in the list: x, x, -9, x, -5, -7, x, -12
`CCOc1cc(-c2nc(-c3ccncc3)no2)cc(OCC)c1OCC` in the list: i, 11, x, -7, -10, -7, -11, -10

Going on with the list.
SMILES | Rce1 inhib | CSC inhib | HIV Env fusion | PABP FP inh | MT1-MMP act inh | MT1-MMP act inh RFP | eIF4H FP inh | UUG fidelity
O=C(CN1CCc2[nH]c3ccccc3c2C1)N1CCCCC1 | i | -13 | x | 4 | -4 | -2 | 6 | 11
CCNC(=O)C1(C)CCN1CCC(=O)c1ccc(Br)cc1 (stereo not given) | x | x | 1 | x | 1 | 3 | x | -18
CCS(=O)(=O)N1CCC(N2CCN(c3ccccc3)CC2)CC1 | i | -5 | -3 | -2 | -1 | 2 | 8 | 0
O=C(O)c1ccc(C(=O)c2ccc3c(c2)C(=O)N(CC2CCCO2)C3=O)cc1 (stereo not given) | i | 0 | -2 | 4 | 2 | 6 | 4 | -3
Cc1sc2ncnc(Sc3ccccc3C(=O)Nc3ccc(C#N)cc3)c2c1C | i | 13 | -23 | -5 | -2 | -5 | 6 | x
COC(=O)c1ccccc1Oc1ccc(NC(=O)CCCl)cc1 | i | -2 | -1 | -6 | -1 | 1 | -3 | -2
[N-]=[N+]=CC(=O)CC(c1ccccc1)N1C(=O)c2ccccc2C1=O (stereo not given) | i | 17 | -50 | 19 | 17 | 5 | -9 | -7
COc1ccc(CCC(=O)NCc2cn3ccsc3n2)cc1 | i | -5 | 20 | x | -1 | 1 | x | -33
O=C(NC(=S)N1CCCCC1c1cccnc1)c1ccc(F)cc1 (stereo not given) | i | -18 | -1 | 0 | 4 | 3 | -2 | -11
COc1ccccc1CNS(=O)(=O)c1ccc(-n2cnnn2)c(C)c1 | i | 1 | -20 | 2 | 4 | 5 | -10 | -16
COc1ccccc1NS(=O)(=O)c1cc(NC(=O)Nc2ccccc2)ccc1N1CCCCC1 | x | 3 | x | -8 | 6 | -11 | -3 | -2
O=C(Nc1ccccc1)[C@@H]1CC=C[C@@H]2CCN(Cc3ccc(Cl)c(Cl)c3)C(=O)[C@@H]21 | i | 6 | 35 | x | 4 | -12 | x | -10
Cc1ccc(C(=O)Nc2ccccc2Cl)cc1 | i | 3 | -28 | 7 | -3 | -2 | -5 | -25
O=[N+]([O-])c1c(Nc2ccccc2O)ccc2nonc12 | i | 6 | -6 | -8 | 0 | 1 | -2 | -5
O=C(NCCO)c1cc2ccccc2cc1O | i | 23 | -12 | 2&-2 | 7 | -2 | 1&1 | -13
Cc1ccc(OCCC(=O)OCC(=O)NC(=O)c2ccccc2)cc1 | i | 8 | -9 | x | -5 | 0 | x | -6
O=C(C1CCCC1)N(c1ccccc1)C1C=CS(=O)(=O)C1 (stereo not given) | i | 1 | -1 | -8 | -4 | 0 | -1 | 3
Cc1cc2cc3c(cc2nc1SCC(=O)Nc1ccccc1)CCC3 | i | 9 | x | -12 | 3 | 1 | -3 | x
Cc1ccc(S(=O)(=O)/N=C2/C=C(Sc3ncn[nH]3)C(=O)c3ccccc32)cc1 | x | 107* | x | 5 | -105 | -28 | 7 | -35
Cc1ccc(OCC(=O)N/N=C/c2cccn2C)cc1C | i | 9 | -11 | -3 | 2 | -2 | -4 | x
COc1ccc(Cl)c(OC)c1C(=O)NC(=O)Nc1nc(C)nc(C)n1 | i | 3 | 11 | 2 | 1 | 8 | -7 | -31
CN1c2ccccc2C(=O)NC1c1ccc([N+](=O)[O-])s1 (stereo not given) | i | -1 | -16 | 10 | -1 | -5 | 2 | x

Filtered by structure, those above containing fluorine
SMILES | Rce1 inhib | CSC inhib | HIV Env fusion | PABP FP inh | MT1-MMP act inh | MT1-MMP act inh RFP | eIF4H FP inh | UUG fidelity
O=C1Nc2ccc(Br)cc2C1(O)c1ccc(F)cc1 (stereo not given) | i | -3 | 8 | 5 | 1 | -1 | -4 | 1
Cc1cc(F)ccc1NCc1ccc([N+](=O)[O-])cc1 | i | -11 | 0 | u | 1 | -3 | -7 | x
COc1ccc(OC)c(C(c2nnnn2C2CCCC2)N2CCN(c3ccc(F)cc3)CC2)c1 (stereo not given) | i | x | x | -2 | -12 | -9 | -7 | -3
O=S(=O)(NCc1nnnn1-c1ccc(F)cc1)c1ccc(F)cc1 | x | x | -10 | x | 4 | 2 | x | -25
O=C(c1ccc2c(c1)OCO2)N1CCN(c2ccc(C(F)(F)F)cn2)CC1 | i | -1 | x | 9 | 9 | -5 | -6 | x
O=C(NCC(=O)N(c1ccc(F)cc1)C(C(=O)NC1CCCCC1)c1cccnc1)c1ccco1 (stereo not given) | i | -36 | 11 | 10 | 5 | 7 | -16 | 0
O=C(Nc1ccccc1C(=O)N1CCOCC1)c1ccc(F)cc1 | i | 20 | x | 2 | -6 | -3 | -1 | -12
CCn1ncc(CNC(=O)CCSc2nc(-c3ccco3)cc(C(F)(F)F)n2)c1C | i | x | x | 1 | 3 | 0 | 0 | 4
CC(C(=O)Nc1ccccc1F)N1CCN(S(=O)(=O)c2ccc(C(F)(F)F)cc2)CC1 (stereo not given) | x | x | -9 | x | -5 | -7 | x | -12
O=C(NC(=S)N1CCCCC1c1cccnc1)c1ccc(F)cc1 (stereo not given) | i | -18 | -1 | 0 | 4 | 3 | -2 | -11

High-throughput results: PubChem, several laboratories

This is a subset; rates above refer to the full screens.
